KCNQ2 pot – KCNQ2 (rat) channel potentiation; O88943; CHO-K1 KCNQ2, FluxOR thallium flux fluorescence; stronger effect = higher value; B-score at 10 µM; hit rate 0.54% among 310,000;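 active means fluorescence ratio B-score at least 3 SD of library B-scores, with initial fluorescence B-score within 3 SD, cut at about 5.3 in these data; same plate scores as AID 2156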;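 further: B-score of peak minus minimum over baseline fluorescence ratio after K+ and Tl+ stimulus; positive B-score means potentiation of KCNQ2 with more thallium influx and brighter signal; only the inactives scoring about 0 or higher are listed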
Target sequence (O88943 whole entry, looked up): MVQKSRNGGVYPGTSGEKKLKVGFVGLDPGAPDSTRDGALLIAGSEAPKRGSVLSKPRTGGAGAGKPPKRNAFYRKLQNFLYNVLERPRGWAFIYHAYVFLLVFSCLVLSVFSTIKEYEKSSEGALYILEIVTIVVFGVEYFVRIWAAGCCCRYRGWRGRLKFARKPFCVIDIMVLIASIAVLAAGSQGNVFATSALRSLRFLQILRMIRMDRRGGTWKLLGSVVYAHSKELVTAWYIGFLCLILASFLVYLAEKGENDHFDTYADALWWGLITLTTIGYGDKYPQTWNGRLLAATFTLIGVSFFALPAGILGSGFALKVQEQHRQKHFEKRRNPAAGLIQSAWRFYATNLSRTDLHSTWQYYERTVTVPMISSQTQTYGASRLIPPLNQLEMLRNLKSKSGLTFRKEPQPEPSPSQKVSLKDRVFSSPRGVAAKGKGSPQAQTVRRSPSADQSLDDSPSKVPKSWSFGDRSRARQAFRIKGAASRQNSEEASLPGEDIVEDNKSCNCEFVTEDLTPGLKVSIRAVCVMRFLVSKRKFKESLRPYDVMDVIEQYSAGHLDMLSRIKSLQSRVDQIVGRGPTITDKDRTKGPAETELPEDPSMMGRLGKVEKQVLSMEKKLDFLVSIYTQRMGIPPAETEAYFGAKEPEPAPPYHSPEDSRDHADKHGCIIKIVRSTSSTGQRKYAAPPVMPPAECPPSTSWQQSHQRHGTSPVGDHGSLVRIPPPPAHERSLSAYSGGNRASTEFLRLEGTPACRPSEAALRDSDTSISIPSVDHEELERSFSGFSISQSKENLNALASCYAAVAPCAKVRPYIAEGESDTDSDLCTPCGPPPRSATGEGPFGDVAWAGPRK
KCNQ2 pot baseline – recorded beside KCNQ2 pot, whose call it bears; B-score; compound at 10 µM; measured here: initial fluorescence intensity artifact check;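 brightness before thallium and not channel activity; 0 = typical well and far values either way flag optical interference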
* hit, by the source's call.

molecule	KCNQ2 pot baseline	KCNQ2 pot
CN1C2CCC1CC(OC(=O)c1ccc(Cl)cc1)(C(=O)O)C2 (centres undefined)	0	0.32
Cc1ccc(-c2cc(C(=O)N3CCC4(CC3)OCCO4)no2)cc1	0.03	1.7
CC1(C)CC(=O)c2cc(OCC(=O)N3CCN(Cc4ccccc4)CC3)ccc2O1	-1	0.9
CCN(CC)S(=O)(=O)c1ccc(N=Cc2c(O)n(-c3ccccc3)c(=O)[nH]c2=O)cc1	-0.41	0.02
CCOC(=O)C1(c2ccccc2)CCN(CCC(=O)Nc2ccccc2OC)CC1	0.9	0.53
CCN1C(=O)NC(=O)/C(=C\c2cn(CC(=O)O)c3ccccc23)C1=O	-1.2	0.31
O=c1c2ccccc2nc(/C=C/c2ccc(O)cc2)n1-c1ccccc1O	-0.03	0.28
O=c1cccc2n1CC1CNCC2C1 (centres undefined)	2.5	0.02
COc1cc(OC)c2c(c1)O[C@@H](c1ccc(OC)c(OC)c1)[C@H](O)C2	0.19	0.19
CCc1nccc2c1[nH]c1ccccc12	0	0.86
CC(C)(C)NC(=O)Cn1cc(C(=O)c2ccccc2F)c2ccccc21	-2.2	2
COc1ccc(CN2C(=O)NC(=O)/C(=C/c3ccc(OC)c(OC)c3OC)C2=O)cc1	-0.02	0.6
Cn1c(O)c(C=NC2CC3CCC2(C)C3(C)C)c(=O)[nH]c1=O (centres undefined)	-0.74	1
O=C(c1ccccc1)c1ccc(N=Nc2c(O)[nH]c(=O)[nH]c2=O)cc1	-0.47	0.21
CCOc1ccc(N2C(=O)NC(=O)/C(=C\c3ccc(N4CCOCC4)cc3C)C2=O)cc1	0.71	0.51
CN1C(=O)C(=Cc2ccccc2OCc2ccc(Cl)cc2)C(=O)N(C)C1=O	-0.05	0.38
Cc1cccc(-n2c(C)nc3cc(C(=O)N4CCC5(CC4)OCCO5)ccc32)c1	0.62	0.19
CCOc1ccc(C(C)=O)cc1Cn1ccsc1=N	0.75	1.6
Cn1nccc1C(=O)N1CCC2(CC1)OCCO2	0.05	1.1
CCn1c(NN=O)nc2ccccc21	1	1.2
O=C1N[C@@H](Cc2ccccc2)C(=O)N2[C@H]1C[C@H]1c3ccccc3N(OOSc3ccccc3)[C@H]12	-1.1	0.77
CC1(C)C2CC=C(CN3CCC(O)CC3)C1C2 (centres undefined)	0.52	0.53
COc1ccc(-c2nn(CCC#N)cc2C(=O)Nc2ccccc2Br)cc1[N+](=O)[O-]	-1.9	0.75
COc1ccc(Cn2c(O)c(C=NCCN3CCOCC3)c(=O)[nH]c2=O)cc1	-0.78	0.01
CCn1c(O)c(C=NCc2cccs2)c(=O)[nH]c1=O	-1.6	0.47
COC(=O)CN1C(=O)CN=C(c2ccccc2Cl)c2cc(Br)ccc21	-1.1	2.7
Cc1ccc(CNCCc2ccc(F)cc2)s1	0	3.1
Cc1cccc(C(=O)Nc2ccc3c(c2)CC2(C(=O)N(C)C(=O)N(C)C2=O)C2CCCN32)c1 (centres undefined)	1.1	0.27
NC(=O)OCCSc1nnc(-c2cccc(C(N)=S)c2)o1	-0.03	1.2
O=C(c1c[nH]c2ccc(S(=O)(=O)N3CCC4(CC3)OCCO4)cc2c1=O)N1CCC2(CC1)OCCO2	0.63	0.06
CC(C)Oc1ccc(CCN)cc1Cl	-1.3	0.2
COc1ccc(-n2c(C)nc3ccccc3c2=O)c([N+](=O)[O-])c1	-0.81	0.75
O=c1[nH]sc2cc(F)ccc12	-1.9*	6.9*
O=C(Nc1ccc(F)cc1)N1CC2CC(C1)c1cccc(=O)n1C2 (centres undefined)	-1.2	0.22
CC(C)n1cc(C(=O)N(CC(=O)NC(C)(C)C)Cc2ccccc2)cn1	0.66	0.66
OC[C@@H](O)CCl	-0.87	1.2
CN(C)c1ccc(C=C2C(=O)NC(=S)NC2=O)cc1[N+](=O)[O-]	0.34	1.8
CCc1ccc(N2C(=O)NC(=O)C(CCc3ccncc3)(CCc3ccncc3)C2=O)cc1	2.6	0.69
CN(C(=O)Oc1ccc([N+](=O)[O-])cc1)c1ccccc1	-0.69	1.6
Cc1cccc(-n2c(O)c(C=Nc3ccc(S(N)(=O)=O)cc3)c(=O)[nH]c2=O)c1	0.06	1.9
COc1ccc(CCNCc2sccc2C)cc1OC	0	0.85
CC(=O)Nc1ccc(S(=O)(=O)NC(CC(=O)N2CCC3(CC2)OCCO3)C(C)C)cc1 (centres undefined)	-0.04	0.7
COc1cc(CN=C(C)c2c(O)n(C3CCCCC3)c(=O)[nH]c2=O)cc(OC)c1	1.1	1.2
Cc1cccc(Cn2cc(C=O)c3ccccc32)c1	-0.72	1.6
CCCCN1C(=O)/C(=C/C=C/c2ccco2)C(=O)NC1=S	0.08	0.52
O=[N+]([O-])c1ccc(N2CCNCC2)cc1N1CCCCCC1	1.7	0.57
C/C(=N\NP(=S)(c1ccccc1)c1ccccc1)c1ccc(O)cc1O	0.01	0.03
COC(=O)C1=CCCN(C)C1	-0.44	1.1
CCCC(C)C1(CC)C(=O)NC(=Nc2ccc(OC)cc2)NC1=O (centres undefined)	-1.8	0.12
O=[N+]([O-])c1ccc(NCCCN2CCOCC2)nc1	-0.9	0.51
Cc1ccc(CC(=O)N2CCN(Cc3ccccc3)CC2)cc1	-1.7	0.8
O=C(NC(=S)N1C[C@H]2C[C@H](C1)c1cccc(=O)n1C2)c1ccc(Cl)cc1Cl	0	0.91
c1nc2nc3c(c(N4CCNCC4)n2n1)CCCC3	-0.31	0.73
CN1CC(C(=O)c2ccc(F)cc2)C(c2c(F)cccc2Cl)C1 (centres undefined)	0.03	0.9
Cc1cccnc1-n1c(-c2ccccc2)nc2ccccc2c1=O	-0.04	0.01
CCN1CCN(c2ccc([N+](=O)[O-])cc2C(=O)OC)CC1	1.8	0.08

Profiles, looked up by structure. Screens in order: KCNQ2 pot baseline, KCNQ2 pot
Results for O=[N+]([O-])c1ccc(NCCCN2CCOCC2)nc1 → -0.9, 0.51
Results for Cc1ccc(CC(=O)N2CCN(Cc3ccccc3)CC2)cc1 → -1.7, 0.8
Results for CN1CC(C(=O)c2ccc(F)cc2)C(c2c(F)cccc2Cl)C1 (centres undefined) → 0.03, 0.9
Results for O=C(NC(=S)N1C[C@H]2C[C@H](C1)c1cccc(=O)n1C2)c1ccc(Cl)cc1Cl → 0, 0.91

The list continues:
molecule	KCNQ2 pot baseline	KCNQ2 pot
COc1ccccc1N1CCN(CCc2ccccc2)CC1	0.02	1.2
CN(C)C(=O)NC(O)C(Cl)(Cl)Cl (centres undefined)	2.3	0.28
CCC(COC(=O)NC)NC(=O)Oc1ccccc1 (centres undefined)	-0.54	0.66
COc1ccc(C(=O)C2CN(C)CC2C(=O)c2ccc(OC)cc2)cc1 (centres undefined)	-0.25	0.34
CN(C)CCN(CC1CCCN(Cc2ccccc2F)C1)C(=O)Cc1c(F)cccc1F (centres undefined)	-1.1	1.4
O=C1C2CCN(CC2)C1Cc1ccc(OCCOc2ccccc2)cc1 (centres undefined)	0.08	2.5
COc1ccc(CCn2c(O)c(C=NCCCN(C)C)c(=O)[nH]c2=O)cc1OC	-1.2	0.16
COCCN1Cc2cc(=O)n3c([nH]c4ccccc43)c2C1=N	0.2	0.79
O=C(O)C(Cc1cnc[nH]1)NS(=O)(=O)c1ccc(Br)cc1 (centres undefined)	0.1	1.5
COc1ccc(-n2c(=O)[nH]c3ccccc3c2=O)c(OC)c1	1.5	0.09
CCC(C)NC(=O)c1c(N)n(Cc2ccc3c(c2)OCO3)c2nc3ccccc3nc12 (centres undefined)	-0.06	0.24
CN(C(=O)Oc1ccc(F)cc1)c1ccccc1	-1.9	0.14
O=c1[nH]c(=O)n(CCC2=CCCCC2)c(O)c1C=NCc1cccnc1	-0.49	0.99
CC1(C)COC(Nc2cccc(Cl)c2)=N1	-0.95	1.1
c1ccc(CNc2c3c(nc4ccccc24)CCC3)cc1	1.1	0.24
CCOC(=O)C1=C(C)OC(N)=C(C#N)C12C(=O)Nc1ccc(C)cc12 (centres undefined)	0.78	0.41
CC(C(=O)c1c[nH]c2ccccc12)N1CCN(C(=O)c2ccco2)CC1 (centres undefined)	0.38	1.7
CCCCN1CCC(C#N)(Nc2ccccc2)CC1	0.08	0.73
CCC(=NCc1cccnc1)c1c(O)n(-c2ccccc2C)c(=O)[nH]c1=O	-2.5	0.09
Cc1cc(N2CCNCC2)nc2ccccc12	-0.61	1.2
NP(=O)(OCCCc1ccccc1)Oc1ccccc1Cl (centres undefined)	-0.32	2.2
COC(=O)C1=C(c2ccccc2)C[C@@H]2CC[C@H]1N2C(=O)NCCS(C)=O (some centres undefined)	0.7	0.69
O=C(Nc1ccc(F)c([N+](=O)[O-])c1)N1C[C@H]2C[C@@H](C1)c1cccc(=O)n1C2	0.77	0.66
C=CCn1c(O)c(C(C)=Nc2cccc(C(F)(F)F)c2)c(=O)[nH]c1=O	1.3	0.77

Some of the entries above in a different format:
Below each SMILES – KCNQ2 pot baseline | KCNQ2 pot
CCCCN1CCC(C#N)(Nc2ccccc2)CC1
    0.08 | 0.73
CCC(=NCc1cccnc1)c1c(O)n(-c2ccccc2C)c(=O)[nH]c1=O
    -2.5 | 0.09
Cc1cc(N2CCNCC2)nc2ccccc12
    -0.61 | 1.2

Continuation:
molecule	KCNQ2 pot baseline	KCNQ2 pot
CC(=NCc1ccc(F)cc1)c1c(O)n(C)c(=O)n(C)c1=O	-1.1	1.1
O=C(Cn1cnc2ccccc2c1=O)NCCC(=O)N1CCC2(CC1)OCCO2	0.59	1
CN(C)c1ccc(/C=C2/C(=O)NC(=O)N(Cc3ccco3)C2=O)cc1	0.39	1.5
CC(=O)N1N=C(c2cccnc2)CC1c1ccccc1O (centres undefined)	1	0.38
COc1ccc2c(c1)CC1(CN2C)C(=O)NC(=O)N(c2ccc(F)cc2)C1=O (centres undefined)	-0.02	0.72
COc1ccc(OC)c(NC2=NCCCS2)c1	-2.2	1.1
FC(F)(F)c1ccc2c(c1)ncn2C1CCN(Cc2nnnn2C2CCCCC2)CC1	-2.9	2
O=c1[nH]c(=O)n(CCc2ccccc2)c(O)c1C=NCc1ccc2c(c1)OCO2	-0.48	0.01
CCN1CCN(Cc2cc(OC)c3c(c2)OCO3)CC1	-0.7	0.73
COc1ccc(C(CC(=O)N2CCC3(CC2)OCCO3)NS(=O)(=O)c2ccc(OC)cc2)cc1 (centres undefined)	-0.47	0.62
Cc1cc(C)c(C2=NOC(O)(C(F)(F)F)C2)c(=O)[nH]1 (centres undefined)	3.3	0.73
CC(C)CC(=O)Nc1ccc(S(=O)(=O)N2CC3CC(C2)c2cccc(=O)n2C3)cc1 (centres undefined)	-1.7	1.7
Cc1ccc(N=C(/N=C(\N)N[N+](=O)[O-])Nc2ccc(C)cc2)cc1	0	0.41
CC[N+](CC)(CC)CCCCCCCCCC[N+](CC)(CC)CC	-1.8	0.56
CN1CCc2nc3sc(C#N)c(N)c3c(-c3cccs3)c2C1	0.09	1.9
Cc1cc(C)c(N=Cc2c(O)[nH]c(=O)[nH]c2=O)c(C)c1	2.4	0.36
COc1ccc(CCNCc2ccccc2)cc1	0.61	1.3
COc1ccc(CN2CCCC(C(=O)c3sccc3C)C2)cc1O (centres undefined)	-0.28	0.95
C=CCn1c(O)c(C(C)=NCCC2=CCCCC2)c(=O)[nH]c1=O	-1.6	1.6
O=C1/C(=C/c2cccnc2)N2CCC1CC2	-2.2	0.01
CCSc1nnc(C(N)Cc2ccccc2)o1 (centres undefined)	0.1	0.72
CCC(=O)OC1(c2ccccc2)C(C)CN(C)CC1C (centres undefined)	-1.6	0.71
COc1ccc(C2SCC(=O)Nc3c2c(C)nn3-c2ccccc2)cc1OC (centres undefined)	-1.4	0.01
CC(c1ccccc1)[n+]1ccccc1 (centres undefined)	0.24	0.04
CN1C(=O)/C(=C/C=C/c2ccco2)C(=O)NC1=S	-0.15	0.11
Cc1cc(C)nc(-n2c(C)nc3cc(Cl)ccc3c2=O)c1	-0.48	2.4
C=CCn1c(O)c(C(CC)=Nc2ccc(N(CC)CC)cc2)c(=O)[nH]c1=O	-3.9	0.13
CCOc1ccc(N2C(=O)NC(=O)/C(=C/c3cnc(SC)nc3)C2=O)cc1	-1.9	0.58
O=C1NC(=O)N(c2ccccc2)C(=O)/C1=C\c1ccc2c3c(cccc13)CC2	0.16	1.6
CCCCn1c(NS(=O)(=O)c2ccccc2)c(C(=O)OCC)c2nc3ccccc3nc21	-1.9	0.52
C=CCn1c(O)c(C(C)=NCc2ccco2)c(=O)[nH]c1=O	-0.6	0.62
O=c1[nH]c(=O)n(CCc2ccccc2)c(O)c1C=NCCN1CCNCC1	0.02	0.02
COc1ccc([C@@H](O)[C@@H](N)c2ccccc2)cc1	0.66	0.71
CC1=C2[C@@H]3OC(=O)[C@H](C)C3CC[C@@]2(C)C=CC1=O (some centres undefined)	-0.3	0.34
Cc1ccc(-n2c(-c3cccs3)nc3ccccc3c2=O)cc1	2.5	0.09
CC1CCC(N(C)C2CCN(C)CC2)CC1 (centres undefined)	-0.81	1.4
O=C(CNS(=O)(=O)c1cccs1)N1CCC2(CC1)OCCO2	2.1	0.14
O=C(/C=C/c1ccc(Cl)cc1)NC(=S)N1C[C@H]2C[C@H](C1)c1cccc(=O)n1C2	0.49	0.34
C=CCN1C(=O)NC(=O)/C(=C/c2cnc(SC)nc2)C1=O	0.05	0.75

Compound activity from PubChem BioAssay.

The list is partial; count on the stated rates, not on these rows.
